Bioassay records (PubChem BioAssay)
TRPML1 agonist: qHTS for Agonists of the Human Mucolipin Transient Receptor Potential 1 (TRPML1); Mucolipin-1 (Homo sapiens), Q9GZU1; TRPML1-expressing cells, Ca2+ dye fluorescence, FDSS; host cell line not named in the record; reference of the full effect not given here; activation, % (no concentration beside the values); hit rate 0.12% among 410,000; AID 624414, 2012; in the data active = activation above about 50%; inconclusive = about 30% to 50%; inactive = below about 30%; further: 0% is about no effect; the text of the record puts the active cut at 80%
Target sequence (Q9GZU1 whole entry, looked up): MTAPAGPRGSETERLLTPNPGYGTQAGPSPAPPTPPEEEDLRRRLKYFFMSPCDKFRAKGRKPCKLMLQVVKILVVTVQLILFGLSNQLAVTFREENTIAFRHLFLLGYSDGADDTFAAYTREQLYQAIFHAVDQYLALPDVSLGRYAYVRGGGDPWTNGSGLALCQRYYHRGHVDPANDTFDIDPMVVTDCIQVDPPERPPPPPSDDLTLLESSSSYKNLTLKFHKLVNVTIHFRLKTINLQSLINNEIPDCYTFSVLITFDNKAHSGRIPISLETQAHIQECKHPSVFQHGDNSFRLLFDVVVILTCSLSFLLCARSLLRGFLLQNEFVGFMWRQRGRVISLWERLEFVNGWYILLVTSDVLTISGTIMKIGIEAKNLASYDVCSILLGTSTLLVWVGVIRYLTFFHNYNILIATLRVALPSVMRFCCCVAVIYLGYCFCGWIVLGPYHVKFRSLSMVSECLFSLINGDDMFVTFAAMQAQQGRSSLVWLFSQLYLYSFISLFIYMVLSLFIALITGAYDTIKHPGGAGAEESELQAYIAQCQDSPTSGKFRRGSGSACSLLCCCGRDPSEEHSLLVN
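Kinetic FDSS Ca2+ read in Tet-induced TRPML1-DL cells (ABD Ca8 dye plus quencher, 45-90 min RT loading): baseline, then compound, then 110 s agonist window; EC80 agonist 54-4 at 4uM final added afterwards for a 110 s antagonist window.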
Menin-MLL FL inh: qHTS Assay for Inhibitors Targeting the Menin-MLL Interaction in MLL Related Leukemias: Competition With Fluorescein Labeled MLL-derived Peptide; Fluorescence polarization, fluorescein-MLL peptide displacement from menin; FP activity change, % at 61.4 µM; 290,000 tested, under 10 active; AID 1766, 2009; inconclusive = falling polarisation curve, or a change in total fluorescence; inactive = total fluorescence flat and polarisation flat or rising; no compound was filed as active; the % refers to the polarisation; negative = inhibition;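 further: % of control where 0% means no effect; inhibitors lower the polarisation; unlabelled MLL peptide was the positive control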
TRPV1 PAM: HTS Assay for Compounds that Act as Potentiators of the Vanilloid Receptor 1. potentiation, % at 8.33 µM. hit rate 0.02% among 320,000. AID 540277, 2011. Transient receptor potential cation channel subfamily V member 1 (Homo sapiens), Q8NER1. TRPV1-expressing cells, Fluo-8 calcium influx, capsaicin EC20 potentiation; host cell line not named in the record; control for the full effect not named in the record; active means potentiation above 80%; inconclusive means 30% to 80%; inactive means below 30%; further: 0% is about no effect
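Fluo-8 calcium influx in TRPV1-expressing cells, kinetic read (ex 480/em 520 nm). Compound added and read 3 min for agonist activity, followed by capsaicin at EC20 final and 2 min further read for enhancement.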
PINK1 modulator: A Quantitative High throughput Screen to Identify Chemical Modulators of PINK1 Expression | Potency, µM (series often up to 76.6 µM), without a hit: at the highest dose activation (PINK1 increase), usual class: activators | PINK1 immunofluorescence, high-content cytometry, 24 h | hit rate 0.2% among 410,000; active = well fitted activation curve with a large enough effect; inconclusive = small, poorly fitted or top-dose-only effect; inactive = flat fitted curve, though single readings scatter; cell line not stated here;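 further: potency means the concentration at half of the fitted maximal effect; % of control where 0% means no effect; nearly all actives have a fitted effect of over 65% in size; a mitochondrial uncoupler was the plate control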
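Measures PINK1 amount and localization on or inside mitochondria by immunofluorescence. Stable cells get compounds at 5 concentrations for 24 hours before fixation and staining; CCCP controls included.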
Sfp inh: qHTS Assay for Inhibitors of Bacillus subtilis Sfp phosphopantetheinyl transferase (PPTase); Potency, µM, for inactives: max response, negative = inhibition, hits mostly inhibitors; 4'-phosphopantetheinyl transferase ffp (Bacillus subtilis), Q9F4F7; hit rate 3.5% among 310,000; Biochemical Sfp PPTase activity, qHTS; active means well fitted inhibition curve with a large enough effect; inconclusive means small, poorly fitted or top-dose-only effect, or another doubt; inactive means no such curve, though single readings can be large or run the other way;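 further: the enzyme is Sfp with the accession as filed and its product quenches rhodamine fluorescence; potency means the concentration at half of the fitted maximal effect; 0% = enzyme reaction without inhibitor and -100% = no enzyme wells; top concentration of the series not given in the record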
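Reaction rates are the 30-min fluorescence difference (ex 525, em 598 nm) in wells containing 15 nM Sfp, 5 uM rhodamine-CoA and 12.5 uM BHQ-2-YbbR at pH 7.6 with 10 mM MgCl2.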
TRPML1 inh: qHTS for Inhibitors of the Human Mucolipin Transient Receptor Potential 1 (TRPML1); Mucolipin-1 (Homo sapiens), Q9GZU1; TRPML1-inducible cells, Ca2+ dye fluorescence, FDSS; stronger effect = lower value; inhibition of EC80 agonist-evoked calcium signal; activity change, negative = inhibition, % (test concentration not listed); hit rate 0.02% among 390,000; AID 624415, 2012; in the data active means activity change below about -50%; inconclusive means about -30% to -50%; inactive means above about -30%;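 further: stimulus is agonist 54-4 at its EC80 concentration; on the % scale 0 is the no-effect control and ±100 the full control effect; compound concentration not given in the record; the text of the record puts the active cut at -80%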
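Calcium fluorescence in TRPML1-DL cells induced overnight with Tet: a 110 s read after compound pin addition, then a 110 s antagonist read after challenge with 54-4 at 4 uM final (EC80).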
ClpP mod: qHTS Assay for Activators of ClpP; ATP-dependent Clp protease proteolytic subunit (Bacillus subtilis (strain 168)), P80244; purified B. subtilis ClpP, FRET peptide cleavage, 20 min; Potency, µM (doses to about 57.5 µM), for inactives: at the top dose activity change, negative = active; hit rate 1.9% among 340,000; AID 651965, 2013; active = well fitted falling curve with a large enough effect; inconclusive = small, poorly fitted or top-dose-only effect; inactive = no such curve, though single readings can be large or run the other way; further: potency means the concentration at half of the fitted maximal effect; the source files actives as falling curves though it sought activators and does not explain the sign; nearly all actives have a fitted effect of over 65% in size; many hits overshoot -100%
Target sequence (P80244 whole entry, looked up): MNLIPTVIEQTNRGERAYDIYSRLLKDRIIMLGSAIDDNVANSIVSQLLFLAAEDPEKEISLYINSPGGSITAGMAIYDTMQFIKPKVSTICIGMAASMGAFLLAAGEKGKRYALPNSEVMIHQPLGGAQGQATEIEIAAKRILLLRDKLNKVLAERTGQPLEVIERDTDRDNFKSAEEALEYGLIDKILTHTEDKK
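FRET quenching reversal measured ClpP activation: 10 microg/mL B. subtilis ClpP at pH 8 with the FRET-FV decapeptide, read at 430 nm after 320 nm excitation. The 20-min minus 0-min signal was scaled between DMSO/no-enzyme wells and ADEP (5.8 microM final).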
Active calls of the source: *; ? = inconclusive; nt = not tested or not shown; & = joins results of further samples; [ ] = another dose, or the depositor's remark.

SMILES	TRPML1 agonist	Menin-MLL FL inh	TRPV1 PAM	PINK1 modulator	Sfp inh	TRPML1 inh	ClpP mod
CC(=O)c1cc(C#N)c(Oc2ccc(F)cc2)nc1C	0.0	7.4	-3	7.6%	15%	-29	-5.3%
O=[N+]([O-])c1cccc(-c2ncc3ccccn23)c1	-1.0	-0.1	16	0.1%	7%	-18	nt
C=CCSc1nc2sc3c(c2c(=O)n1-c1ccccc1)CCN(C)C3	0.5	8.9	-7	-0.3%	-8%	24	3.2%
O=C(C1CCN(Cc2nc(-c3ccc(Cl)cc3)no2)CC1)N1CCOCC1	0.4	2.0	-29	-1.6%	2%	6	-1.7%
O=C(Nc1ccc(Br)cc1)c1cc2ccccn2n1	0.9	3.1	-26	0.5%	12%	-1	-1.3%
Cc1csc(N=Nc2ccc(N(C)C)cc2)[n+]1[O-]	-0.2	nt	nt	-0.1%	nt	-5	1.6%
CC(=O)c1ccc(OC2(C)CCN(Cc3csc4ccccc34)C2)cc1 (stereo not drawn)	-0.7	nt	nt	0.8%	nt	nt	-6.7%
COc1ccccc1Cn1c(=S)[nH]c2cc(C(=O)NC(C)C)ccc2c1=O	-0.8	8.9	-3	-1.0%	1%	-9	-0.2%
Cc1cc(=O)c2cccc(Br)c2[nH]1	1.2	1.9	-3	1.4%	16%	-14	-1.4%
CC(=O)Oc1cc2c(cc1OC(C)=O)C(=O)CCCC2	-0.5	nt	nt	1.8%	nt	24	0.7%
COC(=O)C1=C(C)N(CCc2cc(OC)c(OC)c(OC)c2)C(=O)N[C@H]1c1ccc(Br)cc1	nt	-1.8&3.4	-3	nt	6%&-5%	nt	nt
CC1CCC2(CC1)NC(=O)N(CC(=O)Nc1ccc3c(c1)CCC3)C2=O (stereo not drawn)	1.7	-0.6	-13	5.9%	13%	-19	nt
Cc1ccc(NC(=O)C2CCCN(C(=O)NCc3ccccc3)C2)c(C)c1 (stereo not drawn)	-0.3	0.2	1	3.2%	1%	10	nt
CCOC(=O)C1C(=O)NCC1c1ccccc1 (stereo not drawn)	0.7	-0.6	2	3.4%[38.3 µM]	24%	-4	0.2%
CC(=O)Nc1cc(C(=O)NCc2ccco2)ccc1Sc1ccc(F)cc1	0.1	0.3	-4	-1.8%	-10%	13	-6.1%
CCCN(CC(=O)Nc1ccccc1OC)C(=O)c1ccc2c(c1)NC(=O)C(C)S2 (stereo not drawn)	-0.6	nt	-9	0.2%	nt	4	1.8%
Cc1csc(=Nc2cccnc2)n1Cc1ccco1	-0.2	0.7	-8	-1.2%	-10%	-20	nt
O=C(COC(=O)COc1ccccc1)NCCC1=CCCCC1	-0.9	nt	11	2.0%	nt	19	0.4%
COc1c(/C=N/Nc2ccc([N+](=O)[O-])cc2[N+](=O)[O-])c(C)nn1-c1ccccc1	-0.1	-0.4	0	8.4%	8%	-11	-1.4%
CCN1CCN(C(=O)c2ccc(OC)c(S(=O)(=O)Nc3ccc(C)cc3)c2)CC1	-0.1	-1.5	-2	0.0%	16%	-1	-0.2%
O=C(c1ccco1)N1CCN(C(c2cccs2)c2nnnn2C2CCCCC2)CC1 (stereo not drawn)	-0.5	2.0	-9	0.1%[38.3 µM]	7%	-12	5.5%
O=C(NCc1cccc(Cl)c1)c1cc2ccc3cccnc3c2[nH]1	-0.5	nt	nt	6.3%	nt	-20	1.2%
COC(=O)c1ccc(COc2ccc(/C=C(\C#N)c3nc4ccccc4[nH]3)cc2OC)o1	0.9	?	15	?	17%	14	?
O=C1[C@H]2[C@@H](c3ccc(C(F)(F)F)cc3)N[C@]3(CCCN(Cc4ccc(C(F)(F)F)cc4)C3=O)[C@H]2C(=O)N1Cc1ccccc1	0.6	nt	nt	-0.9%	nt	1	2.3%
COc1ccc2[nH]c(=O)c(CN(C(=O)c3ccco3)C(C)C)cc2c1	0.0	1.3	-5	0.8%	17%	-12	nt

(continued)
SMILES	TRPML1 agonist	Menin-MLL FL inh	TRPV1 PAM	PINK1 modulator	Sfp inh	TRPML1 inh	ClpP mod
CCCc1cc(=O)n2[nH]cc(-c3ccc(Cl)cc3)c2n1	-0.1	1.3	?	?	-2%	-1	0.8%
CCCNC(=O)c1onc(CSc2ccccn2)c1C(=O)NCCC	0.1	1.6	-49	1.8%	5%	1	0.2%
O=c1nc(N2CCCCC2)nc2n1CCO2	-0.5	2.5	1	0.9%	19%	1	1.2%
O=S(=O)(c1ccc(Br)cc1F)N1CC[C@H](O)C1	-0.5	nt	nt	1.7%	nt	7	1.7%
COc1ccccc1C1NC(=O)NC(C)=C1C(=O)Nc1cccc(C)c1C (stereo not drawn)	-0.9	0.6	nt	3.1%	4%	40	1.8%
Cc1ccc(CNC(=O)CC2C(=O)Nc3c2c(=O)n(C)c(=O)n3Cc2ccccc2)cc1 (stereo not drawn)	1.5	1.4	3	-0.8%	1%	27	2.0%
O=C(CCSc1ccccc1Cl)NNC(=O)c1ccncc1	-0.9	nt	6	1.3%	nt	10	-3.0%
COC(=O)c1sc2nc(SCc3ccccc3C#N)n(N)c(=O)c2c1C	0.0	1.5	2	13%	?	-7	-44%
CCOC(=O)N1CCN(C(c2cc3ccccc3o2)c2nnnn2C(C)(C)C)CC1 (stereo not drawn)	0.1	nt	nt	0.6%	nt	nt	-1.8%
COc1cccc(NC(=O)C2CC(=O)N(Cc3ccc(C)cc3)C2)c1 (stereo not drawn)	-0.5	-3.9	-1	-1.3%	5%	1	-1.3%
O=C(N/N=C/c1ccc(N2CCOCC2)cc1)C1COc2ccccc2O1 (stereo not drawn)	-0.6	0.0	-7	5.1%	0%	7	3.8%
Cc1ccc(N2C(=O)SC(Cc3ccccc3)C2=O)cc1 (stereo not drawn)	2.9	2.8	2	0.5%	22µM*	17	nt
CCOC(=O)N1CCN(C(=O)c2cc(-n3cnnc3)ccc2Cl)CC1	0.5	1.3	0	-0.8%	3%	-2	-2.3%
CNC(=O)c1cc(Nc2nnc(-c3ccc(O)cc3)c3ccccc23)ccc1OC	1.6&0.8	-3.6	-4	3.2%&1.4%	11%	1&2	-3.9%
CCn1c(Cc2ccccc2)nnc1SCc1cccc(C(=O)O)c1	-0.1	-4.1	-5	-2.9%	6%	1	1.6%
CN1CCN(CC(=O)Nc2ccccc2Oc2ccccc2)CC1	-0.6	0.6	-9	0.1%	0%	-5	-2.0%
O=C(O)c1cccnc1SCc1cn2cc(Br)ccc2n1	5.0	-0.1	11	0.0%	-6%	0	nt
Cn1c(C(=O)Nc2ccc3c(c2)OCO3)cc2c(=O)n(C)c3ccccc3c21	0.7	-1.2	-10	8.9%	-7%	11	98%
COc1ccc(/C=C(\C#N)c2nc3ccccc3n2C)c(OC)c1	-0.3	nt	nt	1.5%	nt	-7	-3.0%
CCn1c(SCc2ccccc2)nc2c1c(=O)[nH]c(=O)n2C	-1.4	-2.0	?	0.4%	-6%	29	0.9%
CC(=O)c1ccc(NC(=O)C2CCCN(S(=O)(=O)c3cccc4nonc34)C2)cc1 (stereo not drawn)	2.2	1.8	-28	-1.1%	3%	-15	nt
COc1ccc([N+](=O)[O-])cc1NC(=O)CSc1nncn1-c1ccccc1	2.1	1.1	-17	0.2%	4%	17	nt
O=C(N1CCOCC1)N1CCN(S(=O)(=O)c2ccc(F)cc2)CC1	0.3	0.5	-3	0.5%	8%	1	-3.6%
O=C(Nc1cccn2ncnc12)C(F)(F)F	-0.2	5.7	1	3.8%	-4%	-2	nt
C/C(=N\Nc1nncc2ccccc12)c1ccc(OCC(=O)N(C)C)cc1	0.7	1.6	?	2.1%	50µM*	-10	nt

Later entries.
SMILES	TRPML1 agonist	Menin-MLL FL inh	TRPV1 PAM	PINK1 modulator	Sfp inh	TRPML1 inh	ClpP mod
Cc1cccc(C)c1NC1=NC(C)(C)N=C(N)N1	0.0	-0.8	-5	0.7%	-4%	7	-1.1%
COc1ccc(S(=O)(=O)N2CCCCCC2)cc1C(=O)N(C)CC(=O)Nc1c(Cl)cccc1Cl	-0.2	nt	22	1.1%	nt	16	-1.0%
CCc1cccc(NC(=O)C(c2ccccc2)N2Cc3ccccc3C2=O)c1 (stereo not drawn)	1.3	nt	nt	-1.9%	nt	13	-2.3%
CC(C)Cn1c(N)c(C(=O)COC(=O)c2ccncc2)c(=O)n(C)c1=O	0.6	3.5	-9	-3.2%	8%	-1	?
Nc1ccc(C(=O)N/N=C\C=C\c2ccc([N+](=O)[O-])cc2)cc1	-0.2	0.5	15	4.3%	20%	14	0.1%
CCN1CCOC(=O)C1CC(=O)Nc1ccc(C)c(Cl)c1 (stereo not drawn)	0.3	nt	nt	0.5%	nt	-1	1.5%
CCN(c1ccccc1)S(=O)(=O)c1nnc(NC(=O)c2cccs2)s1	1.7	nt	nt	-1.0%	nt	18	-11%
OCCN(Cc1ccccc1)C(=S)NC1CCCCC1	1.3	0.7	-9	-0.3%	12%	-24	nt

One compound at a time (already shown). Order of values: TRPML1 agonist, Menin-MLL FL inh, TRPV1 PAM, PINK1 modulator, Sfp inh, TRPML1 inh, ClpP mod
Profile of `Cc1cccc(C)c1NC1=NC(C)(C)N=C(N)N1` = 0.0, -0.8, -5, 0.7%, -4%, 7, -1.1%
Profile of `OCCN(Cc1ccccc1)C(=S)NC1CCCCC1` = 1.3, 0.7, -9, -0.3%, 12%, -24, nt
Profile of `Nc1ccc(C(=O)N/N=C\C=C\c2ccc([N+](=O)[O-])cc2)cc1` = -0.2, 0.5, 15, 4.3%, 20%, 14, 0.1%
Profile of `CCN1CCOC(=O)C1CC(=O)Nc1ccc(C)c(Cl)c1` (stereo not drawn) = 0.3, nt, nt, 0.5%, nt, -1, 1.5%
Profile of `CC(C)Cn1c(N)c(C(=O)COC(=O)c2ccncc2)c(=O)n(C)c1=O` = 0.6, 3.5, -9, -3.2%, 8%, -1, ?
